hIAP inh – blocks human intestinal alkaline phosphatase; 0.12% of 330,000 active; purified IAP, CDP-Star luminescence, 30 min; P09923; inhibition, % at 10 µM;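 active = inhibition reaching a set limit with compound at 10 µM in the primary screen, cut at about 35% in these data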;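 note: plate controls were DMSO wells with enzyme for no effect and no-enzyme buffer wells for full effect; values of inactives mirror those of a sister screen read the other way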
Target sequence (P09923 whole entry, looked up): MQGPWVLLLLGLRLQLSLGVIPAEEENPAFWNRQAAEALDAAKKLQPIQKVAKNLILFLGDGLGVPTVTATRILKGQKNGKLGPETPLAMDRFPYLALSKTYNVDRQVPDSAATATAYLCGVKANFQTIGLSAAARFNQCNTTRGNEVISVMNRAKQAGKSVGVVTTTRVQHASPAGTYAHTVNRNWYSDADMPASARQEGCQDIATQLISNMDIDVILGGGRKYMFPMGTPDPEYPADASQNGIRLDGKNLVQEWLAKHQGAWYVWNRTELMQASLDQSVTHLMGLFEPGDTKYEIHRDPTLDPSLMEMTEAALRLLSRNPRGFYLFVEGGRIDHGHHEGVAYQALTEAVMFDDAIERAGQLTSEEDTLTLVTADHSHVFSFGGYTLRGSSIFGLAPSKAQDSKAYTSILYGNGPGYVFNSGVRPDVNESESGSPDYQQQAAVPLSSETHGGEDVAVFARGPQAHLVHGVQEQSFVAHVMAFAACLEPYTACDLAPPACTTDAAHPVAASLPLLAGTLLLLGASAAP
mIAP block – blocks mouse intestinal alkaline phosphatase; inhibition, % at 10 µM; purified mouse IAP, CDP-Star luminescence, 30 min; 0.2% of 330,000 active;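 active = inhibition of at least 40% at 10 µM in the primary screen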;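 note: plate controls were DMSO with enzyme for no effect and no enzyme wells for full effect; values of inactives mirror those of a sister screen read the other way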
hIAP activ – increases human intestinal alkaline phosphatase activity | activation factor at 10 µM | AID 2524 | purified human IAP, CDP-Star luminescence, 30 min; hits give high values; 1 = vehicle-only enzyme, 0 = enzyme-free background | 0.16% of 330,000 active | P09923;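 active = activation factor of the enzyme at least 2-fold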; note: the source names both 10 and 20 µM as test concentration; values of inactives mirror those of a sister screen read the other way
A3A deaminase – inhibitors of human APOBEC3A DNA deaminase | 0.41% of 330,000 active | recombinant A3A, FAM/TAMRA ssDNA deamination fluorescence | inhibition, % at 20 µM | P31941 | AID 493011;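 active = at least 40% inhibition at 20 µM here, with at most 30% in a related deaminase screen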;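 note: plate controls were A3A with DMSO for no effect and wells lacking A3A enzyme for full effect; some results filed as inactive read as strong as hits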
MIN6 prolif – MIN6 beta-cell proliferation induction. MIN6 cells proliferation, ATPlite luminescence, 48 h; cells starved in 0.2% serum; 100% = growth in 10% serum. 0.29% of 330,000 active. proliferation, % at 10 µM;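 active = compounds whose signal lies at least 3.5 SD above the mean of all wells on their plate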;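 note: 0% = DMSO-treated cells in low-serum medium and 100% = 10% serum control; some compounds called inactive have numbers as strong as hits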
mIAP act – mouse IAP activation; AID 2805; activation factor at 10 µM; muIAP, CDP-Star luminescence, 30 min; hits give high values; 1 = vehicle-only enzyme signal, 0 = enzyme-free wells; 0.24% of 330,000 active;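 active = activation factor of at least 2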; note: the source names both 10 and 20 µM as test concentration; values of inactives mirror those of a sister screen read the other way
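Assay system: mouse IAP enzyme / Compound: DMSO-dissolved test compounds / Timing: 30 min, room temperature / Measured by: luminescence from enzymatic CDP-Star hydrolysis / Control set: DMSO-only wells, enzyme-free buffer wells as negative control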
The depositor's hits bear a star.

SMILES | hIAP inh | mIAP block | hIAP activ | A3A deaminase | MIN6 prolif | mIAP act
COc1ccc(C(=O)N2CCCC2=O)cc1 | 0.3 | -2.9 | 0.997 | -0.7 | -1.1 | 1.03
O=S(=O)(c1ccc(Cl)cc1)N1CC1c1ccccc1 (stereo unspecified) | -12.1 | 2.9 | 1.12 | 1.4 | 0.0 | 0.971
C[C@]12N[C@H](Cc3ccccc31)c1ccccc12 | -14.9 | -6.0 | 1.15 | -2.4 | 0.7 | 1.06
CCOC(=O)c1cc(CC)sc1/N=C/C1C(=O)NC(=S)NC1=O | 1.6 | 21.0 | 0.984 | -3.3 | -2.9 | 0.79
O=C(c1cccc([N+](=O)[O-])c1)C12CN3CN(CN(C3)C1)C2 | -0.2 | -8.5 | 1 | -1.7 | 1.4 | 1.08
CC12CCC(=O)C=C1CCC1C2CCC2(C)C(O)CCC12 (stereo unspecified) | -19.7 | -9.5 | 1.2 | -6.0 | 0.7 | 1.09
Clc1ccc(CSC(Cn2ccnc2)c2ccc(Cl)cc2Cl)cc1 (stereo unspecified) | -25.2 | -24.0 | 1.25 | -1.7 | -7.7 | 1.24
O=c1[nH]c2ccccc2n1CCCN1CCC(n2c(=O)[nH]c3cc(Cl)ccc32)CC1 | -5.4 | -1.4 | 1.05 | -2.4 | -2.0 | 1.01
C[C@]12CCC3C(CC[C@H]4C[C@@H](O)CC[C@]34C)[C@H]1C=CC2=O (stereo partly specified) | -3.6 | -1.7 | 1.04 | 0.5 | 0.8 | 1.02

Look-ups from above:
MIN6 prolif result of C[C@]12N[C@H](Cc3ccccc31)c1ccccc12 stands at 0.7
A3A deaminase result of CCOC(=O)c1cc(CC)sc1/N=C/C1C(=O)NC(=S)NC1=O stands at -3.3

4 of these compounds, reformatted.
SMILES,hIAP inh,mIAP block,hIAP activ,A3A deaminase,MIN6 prolif,mIAP act
C[C@]12N[C@H](Cc3ccccc31)c1ccccc12,-14.9,-6.0,1.15,-2.4,0.7,1.06
CCOC(=O)c1cc(CC)sc1/N=C/C1C(=O)NC(=S)NC1=O,1.6,21.0,0.984,-3.3,-2.9,0.79
O=C(c1cccc([N+](=O)[O-])c1)C12CN3CN(CN(C3)C1)C2,-0.2,-8.5,1,-1.7,1.4,1.08
CC12CCC(=O)C=C1CCC1C2CCC2(C)C(O)CCC12 (stereo unspecified),-19.7,-9.5,1.2,-6.0,0.7,1.09

2 of the compounds above, comma-delimited:
SMILES,hIAP inh,mIAP block,hIAP activ,A3A deaminase,MIN6 prolif,mIAP act
CCOC(=O)c1cc(CC)sc1/N=C/C1C(=O)NC(=S)NC1=O,1.6,21.0,0.984,-3.3,-2.9,0.79
C[C@]12N[C@H](Cc3ccccc31)c1ccccc12,-14.9,-6.0,1.15,-2.4,0.7,1.06

Bioassay records from PubChem.

Some of the compounds tested, so the mix of outcomes need not match the whole.
